Ecoli growth: inhibitors of Escherichia coli growth; hit rate 0.21% among 330,000; OD600 absorbance (no concentration beside the values); AID 1053175; OD600, 23 h; active compounds read low;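 active = OD600 absorbance below the run mean of sample wells minus 3.6 SD, in any replicate, cut at about 0.56 in these data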;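 note: stock transfer was 300 nL into about 60 µL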
Vif A3G: inhibitors of Vif binding to APOBEC3G peptide, primary screen, biochemical, TR-FRET, GST-Vif 1-94, biotin-A3G peptide, dose response retest (AID 1117319); inhibition, %, or IC50 in µM where a hit was titrated; hit rate 0.57% among 260,000; TR-FRET GST-Vif / biotin-A3G peptide binding; higher % means a stronger effect; test concentration not given here; strong numbers were not always called active;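 active = above the screen mean plus three standard deviations and confirmed in dose response; inconclusive = results disagree or hit not tested in dose response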;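 note: Vif residues 1-94 fused to GST binding biotinylated APOBEC3G peptide 110-148; 0% = full assay without inhibitor and 100% = GST in place of GST-Vif; retest series ran down from 100 µM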
UCH37 inh: human UCH37 deubiquitinating enzyme inhibition; purified proteasome/UCH37, Ub-AMC cleavage fluorescence; inhibition, % (no concentration beside the values); hit rate 0.33% among 330,000; AID 588478;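 active = mean of two replicates above 20%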;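 note: 0% = compound-free wells with enzyme and 100% = wells lacking proteasome; stock transfer was 100 nL into about 20 µL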
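assay system = human UCH37 enzyme supplied as purified proteasome complex | amount = proteasome at 0.15 nM in the dispensed enzyme solution | schedule = 30 min compound-proteasome preincubation then 25 min substrate reaction, room temperature | measured by = fluorescence, ex 355 nm, em 460 nm | benchmarks = no-proteasome wells (full inhibition) and compound-free wells (no inhibition)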
LANA-H2B inh: blocks KSHV LANA binding to histone H2A/H2B | cell-free LANA-H2A/H2B peptide, fluorescence polarization | AID 2629 | Q9QR71 | inhibition, % (test concentration not listed) | hit rate 0.6% among 320,000; in the data active = inhibition mostly above about 10%, no sharp cut-off; inactive = mostly below about 6.7%;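 note: stock transfer was 7.5 nL into about 10 µL; 0% = median of vehicle wells and 100% = median of positive control wells; one replicate is shown; the record names a cut of 25% in any replicate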
Target sequence (Q9QR71 whole entry, looked up): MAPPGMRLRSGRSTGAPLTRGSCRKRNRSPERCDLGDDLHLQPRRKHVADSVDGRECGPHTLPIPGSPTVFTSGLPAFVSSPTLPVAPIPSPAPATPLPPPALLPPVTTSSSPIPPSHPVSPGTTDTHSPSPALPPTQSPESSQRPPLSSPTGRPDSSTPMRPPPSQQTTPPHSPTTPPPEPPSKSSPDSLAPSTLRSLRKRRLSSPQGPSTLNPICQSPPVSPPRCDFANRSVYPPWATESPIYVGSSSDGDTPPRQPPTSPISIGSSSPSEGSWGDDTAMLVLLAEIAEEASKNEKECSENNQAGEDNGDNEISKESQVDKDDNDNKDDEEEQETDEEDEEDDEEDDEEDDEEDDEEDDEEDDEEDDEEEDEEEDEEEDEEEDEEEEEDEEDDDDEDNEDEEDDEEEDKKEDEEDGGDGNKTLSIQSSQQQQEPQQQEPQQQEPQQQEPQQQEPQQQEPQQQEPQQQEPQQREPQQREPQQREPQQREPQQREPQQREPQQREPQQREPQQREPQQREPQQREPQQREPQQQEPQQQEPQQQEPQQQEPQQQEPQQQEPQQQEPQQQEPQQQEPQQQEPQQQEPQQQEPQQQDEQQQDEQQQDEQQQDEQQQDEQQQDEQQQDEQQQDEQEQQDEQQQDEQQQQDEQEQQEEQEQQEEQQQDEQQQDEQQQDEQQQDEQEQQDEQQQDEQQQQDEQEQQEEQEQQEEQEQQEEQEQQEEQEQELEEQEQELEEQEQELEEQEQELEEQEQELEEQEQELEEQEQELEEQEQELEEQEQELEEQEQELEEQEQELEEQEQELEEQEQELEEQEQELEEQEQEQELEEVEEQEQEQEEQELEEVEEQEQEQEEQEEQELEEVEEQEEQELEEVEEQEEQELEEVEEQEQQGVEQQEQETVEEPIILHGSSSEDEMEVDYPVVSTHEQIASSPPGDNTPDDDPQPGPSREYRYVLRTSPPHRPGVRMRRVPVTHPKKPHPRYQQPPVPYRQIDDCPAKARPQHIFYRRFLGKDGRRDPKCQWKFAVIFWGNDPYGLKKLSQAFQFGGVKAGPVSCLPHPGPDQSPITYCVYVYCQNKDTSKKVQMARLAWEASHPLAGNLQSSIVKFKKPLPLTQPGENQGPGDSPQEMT
Beta2AR agonist: activates human beta-2 adrenergic receptor causing internalization; AID 504454; hit rate 0.43% among 340,000; P07550; response, % (concentration not given with the values); Am2.2-beta2AR cells, FAP receptor internalization, flow cytometry; reference of the scale not given here;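 active = response above a set limit, near 3 SD of response in nonfluorescent compounds, cut at about 42% in these data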;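 note: stock transfer was 100 nL into about 11 µL; a reference agonist was the positive control; negative values mostly stem from fluorescent compounds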
HNF4A DNA FP: change in binding of human HNF4 alpha to DNA. hit rate 0.3% among 360,000. HNF4a-FITC DNA binding, fluorescence polarization, 1 h. AID 1224865. activity change, % at 10 µM; in the data active = activity change above about 30%, passing the limit was not always enough;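 note: controls were the assay level and a saturating level of protein; the project sought stronger binding though the title names inhibitors; some compounds called inactive have numbers as strong as hits; positive values seem to mean higher polarization but the record does not say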
A1 inh: inhibitors of the anti-apoptotic protein A1, read as caspase activation | MEF A1-2A-BIM cells, Caspase-Glo 3/7 luminescence, 3 h; percent of clofoctol response, vehicle zero | caspase activation, % (no concentration beside the values) | hit rate 0.066% among 330,000 | AID 2462;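 active = over half of replicate activation scores above 10%, or exactly half above 10 with the replicate mean above 10; inconclusive = replicate mean below 10 yet half the replicates above 10; inactive = over half of replicates below 10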;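 note: wells of about 30 µL received 50 nL stock; many hits fall short of the cut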
Active calls of the source: *; u = inconclusive; x = no result given; & = joins results of further samples. Compounds were not picked by outcome; 2.1% or so of the library scored in one or more.

SMILES	Ecoli growth	Vif A3G	UCH37 inh	LANA-H2B inh	Beta2AR agonist	HNF4A DNA FP	A1 inh
O=C1C2CCCN2C(=O)N1CCCCN1CCN(c2cccc(C(F)(F)F)c2)CC1 (stereo not given)	0.67	8%	4.3	1.1	4	0.5	0.8
COc1ccccc1NC(=O)C(C)NS(=O)(=O)c1ccccc1 (stereo not given)	0.7	1%	-2.8	-2.3	2	0.1	0.3
COc1ccc(C2CC(=O)C3=C(C2)Nc2ccccc2N(C(=O)C2CC2)C3c2cccnc2)cc1OC (stereo not given)	0.72	5%&-2%	-3.2	5.2	10	-1.4	-0.1
COc1ccc(/C=C/C(=O)Nc2ccccc2Cl)cc1S(=O)(=O)N1CCOCC1	0.71	9%	5.4	-1.8	5	2.2	-0.6
CCc1ccc(NC(=O)CCNC(=O)Cn2cnc3ccccc3c2=O)cc1	0.64	x	1.5	-0.2	1	2.1	-0.5
Oc1ccc(/C=C/c2ccc3ccccc3n2)cc1	0.57	x	-115	-0.1	-9	4.8	0.0
CCN(c1cccc(C(F)(F)F)c1)S(=O)(=O)c1ccc2c(c1)CCN2C(C)=O	0.74	5%	4.8	1.8	-2	0.1	0.5
c1cc2c(c(NCc3ccncc3)c1)CCCC2	0.66	2%	4.5	-1.4	-11	-0.1	0.0
O=C(C1=C[C@H](c2ccc(C(F)(F)F)cc2)C[C@H](OCc2ccc(CO)cc2)O1)N1CCOCC1	x	-7%	1.9	1.1	-5	-5.9	-0.4
Cc1nn2c(-c3ccccc3)nnc2c2ccccc12	0.71	-6%	2.0	5.7	0	0.1	-6.6
CCCNc1c(NC(=O)c2cccs2)c(=O)oc2ccccc12	0.64	-14%	1.5	-0.3	14	1.4	1.9
COc1ccc(CN(C)C(=O)c2cccc(NC(=O)CC3SC(N4CCCCC4)=NC3=O)c2)c(OC)c1 (stereo not given)	0.69	-4%	-0.4	x	24	3.8	x
CN1CCCN(C(=O)/C=C/c2ccc(F)cc2)CC1	0.65	0%	2.6	-0.4	-9	-0.4	1.0
CCOc1ccc(CC(=O)Nc2ccc(NC(=O)c3ccco3)cc2)cc1OCC	0.71	5%	-1.2	x	33	-0.8	x
C[C@H](O)c1[nH]c2cc(F)ccc2c1[C@H](C)O	x	x	x	2.3	1	2.5	-0.3
O=C(NC(=O)c1cccc(F)c1)Nc1nc(-c2ccc(F)cc2)cc(C(F)(F)F)n1	0.68	1%	4.0	-0.5	-2	-0.3	-0.8
CCOC(=O)CSc1nnc(CSc2nc3sc4c(c3c(=O)[nH]2)CCC4)n1C	0.66	-4%&-1%	4.6	4.3	1	-0.1	1.0
CCOc1cc(N2CCOCC2)c(OCC)cc1NC(=O)c1cc(S(=O)(=O)N2CCOCC2)ccc1C	0.72	-4%	3.7	2.1	0	0.8	-0.1
FC(F)(F)c1ccccc1-n1ccnc1	0.69	x	-0.6	-1.8	1	3.2	0.0
O=C(Nc1ccc2c(c1)OCO2)C1CCCCN1S(=O)(=O)c1ccc(F)cc1 (stereo not given)	0.62	7%	0.6	3.3	6	1.1	-0.8
C=CCOc1c(Br)cc(/C=N/NC(N)=O)cc1OC	x	u	x	-2.0	13	0.3	-0.1
COc1ccc(CNC(=O)C2CCN(S(=O)(=O)c3ccc4c(c3)NC(=O)C(C)S4)CC2)cc1 (stereo not given)	0.66	x	-1.3	-3.3	12	12	0.8
COc1ccc(NC(=O)CSc2nc(N)c(C(=O)Nc3ccc(N(C)C)cc3)s2)cc1	0.83	7%	0.4	2.3	6	4.0	-0.3
Cc1nc2c3ccccc3nc(SCC(=O)N3CC(C)CC(C)C3)n2n1 (stereo not given)	0.67	11%	3.5	-6.4	9	1.3	1.3
COC(=O)c1ccc2nc(Nc3nc4c(F)cc(F)cc4s3)sc2c1	0.71	-10%	-495	-5.5	9	2.6	-1.0
COc1ccc(C(=O)NCC(=O)Nc2cccc(S(=O)(=O)NCc3ccco3)c2)cc1OC	0.66	20%	2.2	-0.5	-1	2.3	0.3
Cc1ccc(C)c2[nH]c(=O)c(CN(Cc3ccco3)S(=O)(=O)c3ccc4c(c3)OCCO4)cc12	0.76	-6%&-2%	0.4	-5.2	16	-0.5	-0.9
Cc1ccccc1N1C(=O)CC(c2c[nH]c3ccccc23)C1=O (stereo not given)	0.68	x	5.3	2.0	4	3.2	-0.1
CS(=O)(=O)N1CCN(C(=O)C(Sc2ccccc2)c2ccccc2)CC1 (stereo not given)	0.74	0%	3.0	-2.8	4	1.6	0.8
C=CCOc1ccc(C2CC(C)=NN2c2ccccc2)cc1 (stereo not given)	0.69	-5%	0.3	3.6	2	0.0	0.1
Cc1nnc(N2C(=O)C(O)=C(C(=O)c3ccco3)C2c2ccc(F)cc2)s1 (stereo not given)	0.69	-6%	7.9	0.8	4	-12	0.0
CN(C)c1ccc(CNC2CC(C)(C)NC(C)(C)C2)cc1	0.68	6%	0.7	0.4	-4	-3.0	0.2
O=[N+]([O-])c1ccc(Cl)c(/C=N/Nc2nc(N3CCOCC3)nc(N3CCOCC3)n2)c1	x	10%	x	-2.5	-4	2.4	-0.3
CCCn1c(N)c(C(=O)CN(C)CC(=O)Nc2ccc(C)cc2)c(=O)[nH]c1=O	0.67	-3%	1.1	x	4	-0.7	x
C#CC[N+](CC)(CC)CC#Cc1ccccc1	0.67	x	2.4	-0.3	7	-1.1	1.2
O=C(Nc1ccccc1)OC1CCC2CC1CCC2OC(=O)Nc1ccccc1 (stereo not given)	0.7	x	2.3	0.8	23	2.8	-0.3
COc1cccc(-c2nc3ccc(O)cc3c(=O)o2)c1	0.68	1%	-27	2.3	0	-2.2	-6.7
CCOc1ccc(CCNC(=O)CCOc2cc(C)ccc2C)cc1OCC	0.7	x	4.7	-1.4	-2	0.7	0.5
Cc1cc(C)c(NC(=O)CSc2ccc(-c3ccccn3)nn2)c(C)c1	0.67	-18%	1.2	1.7	-1	0.4	-0.2
CCN(CC)S(=O)(=O)c1ccc(N=NC2=C(O)CC(C)(C)CC2=O)cc1	0.67	x	12	1.8	-3	2.1	0.4

Six structures already listed, sorted by length of the SMILES, low to high.
SMILES	Ecoli growth	Vif A3G	UCH37 inh	LANA-H2B inh	Beta2AR agonist	HNF4A DNA FP	A1 inh
C=CCOc1c(Br)cc(/C=N/NC(N)=O)cc1OC	x	u	x	-2.0	13	0.3	-0.1
Cc1ccccc1N1C(=O)CC(c2c[nH]c3ccccc23)C1=O (stereo not given)	0.68	x	5.3	2.0	4	3.2	-0.1
COC(=O)c1ccc2nc(Nc3nc4c(F)cc(F)cc4s3)sc2c1	0.71	-10%	-495	-5.5	9	2.6	-1.0
Cc1cc(C)c(NC(=O)CSc2ccc(-c3ccccn3)nn2)c(C)c1	0.67	-18%	1.2	1.7	-1	0.4	-0.2
CCN(CC)S(=O)(=O)c1ccc(N=NC2=C(O)CC(C)(C)CC2=O)cc1	0.67	x	12	1.8	-3	2.1	0.4
COc1ccc(NC(=O)CSc2nc(N)c(C(=O)Nc3ccc(N(C)C)cc3)s2)cc1	0.83	7%	0.4	2.3	6	4.0	-0.3

Continuation:
SMILES	Ecoli growth	Vif A3G	UCH37 inh	LANA-H2B inh	Beta2AR agonist	HNF4A DNA FP	A1 inh
Cc1nnc(SCc2nc3ccccc3s2)n1-c1ccccc1	0.71	24%	-2.1	-2.8	0	13	0.5
Cn1c(SCc2cccc(C#N)c2)nc2ccccc2c1=O	0.64	x	0.7	-0.7	-2	4.1	0.3
CC(=O)c1ccc(S(=O)(=O)N2CCc3ccccc3C2)cc1	0.67	x	0.0	2.1	0	4.5	2.8
Oc1ccc2ccccc2c1CN1CCCC1	0.66	x	-53	2.5	11	-1.0	0.4
CN(O)C(=O)Nc1ccc([N+](=O)[O-])cc1	0.62	x	12	5.1	-3	-1.5	0.0
CC1CCCCN1CCNC(=O)C1CCN(S(=O)(=O)c2cccc3nsnc23)CC1 (stereo not given)	0.69	x	6.7	1.6	1	1.4	0.5
COc1cc2c(cc1OC)C(CSc1ccccc1C(=O)O)=NC(C)(C)C2	0.7	4%	-14	1.2	-2	2.7	0.8
C=CCN1C(=O)N(c2ccc(Cl)cc2)C(=O)C1CC(=O)Nc1ccc(F)cc1 (stereo not given)	0.64	-8%	4.2	-6.0	6	3.8	-0.5
COc1ccc(/C=C/C(=O)O/N=C(\N)c2ccccn2)cc1OC	0.66	x	-14	21*	-8	6.8	-1.7
CCc1ccc(CN(C)C(=O)C2CCC(=O)N(CC3CCCCC3)C2)cc1 (stereo not given)	0.7	9%	5.3	-8.5	-7	11	0.4
Cc1nc2sc(C(N)=O)c(N)c2c(C)c1CC(=O)c1ccccc1	0.68	9%	-3.5	-0.9	3	0.0	-0.4
O=C(CCCN1C(=O)c2cccc3cccc(c23)C1=O)N1CCN(Cc2ccc3c(c2)OCO3)CC1	0.67	-1%	-11	4.7	9	0.1	-0.8
O=C(Nc1ccc(NC(=S)NC(=O)C(c2ccccc2)c2ccccc2)cc1)c1ccccc1	0.75	-2%	7.2	3.0	-2	1.9	0.5
Cc1cc(Cl)ccc1OCC(=O)NCC(=O)N/N=C/c1ccco1	x	-6%	x	-7.8	-9	1.6	-0.3
O=C(Nc1c(-c2ccccc2)nc2ccccn12)c1cccc(F)c1	0.67	2%	3.4	-3.6	-8	-1.7	1.4
CC(=O)c1sc(NC(=O)c2ccc(Br)o2)nc1C	0.65	-8%	6.5	-2.7	0	-0.4	-9.0
CCCCCNc1nc(-c2ccccc2)nc(-n2ccnc2)n1	0.74	-6%	4.3	-2.5	-4	-7.3	0.7
COCCN(C(=O)CNC(=O)c1ccco1)C(C(=O)NC1CCCC1)c1ccc(OC)c(OC)c1 (stereo not given)	0.64	0%	-1.1	-0.3	20	3.4	0.2
COc1ccc(OC)c(N=C(C)C2=C(O)COC2=O)c1	0.76	u	1.4	1.6	-8	22	-0.1
COc1cc(OC)cc(C(=O)N[C@H](C(=O)OCC(N)=O)C(C)C)c1	0.62	-1%	1.0	-0.6	3	0.9	0.5

Records listed above shown as hits in LANA-H2B inh.
Molecule	Ecoli growth	Vif A3G	UCH37 inh	LANA-H2B inh	Beta2AR agonist	HNF4A DNA FP
COc1ccc(/C=C/C(=O)O/N=C(\N)c2ccccn2)cc1OC	0.66	x	-14	21*	-8	6.8

Continuation.
SMILES	Ecoli growth	Vif A3G	UCH37 inh	LANA-H2B inh	Beta2AR agonist	HNF4A DNA FP	A1 inh
CCC(=O)Nc1ccc(C(=O)CSc2nnc(-c3ccccc3F)n2CCc2ccccc2)cc1	0.65	x	1.8	5.0	-17	-2.2	0.3
COc1ccc(C(=O)Nc2ccc(N3CCN(C(=O)c4ccccc4C)CC3)cc2)cc1	0.68	x	-4.8	-0.2	5	-2.5	-0.8
CCCCCCCCCCCC1N=C(N)NC(CCCO)=C1C(=O)OC (stereo not given)	x	-18%	x	x	-1	13	x
CN(c1ccccc1)S(=O)(=O)c1cccc(NC(=O)Cc2n[nH]c(=O)c3ccccc23)c1	0.67	4%	0.9	1.2	4	-4.5	-0.5
O=C(O)C1CSC2(CCN(Cc3ccccc3)CC2)N1 (stereo not given)	0.73	3%	-0.1	x	18	-0.8	x
Nc1c(C(=O)c2ccco2)oc2ccccc12	0.65	x	1.1	4.2	x	x	-1.8
Cc1cnc(C(=O)OCC(=O)Nc2cccc(S(=O)(=O)N3CCCCC3)c2)cn1	0.72	x	1.0	1.0	-4	-1.5	2.3
NS(=O)(=O)c1ccc(NC(=S)NNC(=O)c2ccc(Br)o2)cc1	0.73	-4%	10	4.3	1	-1.3	0.0
Cc1ccc(C)c(OC(=O)C2CSC3(C)CCC(=O)N23)c1C (stereo not given)	0.65	-6%	2.1	5.1	-1	-1.6	0.5
CC1(C)CC1C(=O)Nc1ccc([N+](=O)[O-])cc1Br (stereo not given)	0.66	x	4.4	2.0	1	-3.0	0.0

Source: PubChem BioAssay (several laboratories)
